Anthrax LT inh: inhibitors of anthrax lethal toxin internalization; Cells, anthrax lethal toxin internalization, FRET ratio (460/530); Potency, µM (top dose mostly 40 µM), without a hit: at the top dose activity change, negative = inhibition, most hits filed as inhibitors; 70,000 compounds, 0.67% hits; AID 912; active = well fitted falling ratio curve with the 530 nm signal flat; inconclusive = other ratio curves, or a change in one channel alone; inactive = flat curves in the ratio and both channels; the % refers to the ratio; further: on the % scale 0 is the no-effect control and ±100 the full control effect; nearly all actives have a fitted effect of over 50% in size; tested in ME-180 cells; beta-lactamase reporter
SmPrx2 inh: Schistosoma mansoni Prx2 inhibition | S. mansoni Prx2 activity coupled to TGR/GSH (TGR is thioredoxin glutathione reductase), NADPH fluorescence loss, qHTS; some inactives read as strong as hits | Potency, µM | 65,000 compounds, 0.07% hits; active means full or partial inhibition curve with a strong effect at the top dose; inconclusive means weaker partial or single-point curve; inactive means no accepted curve; further: series up to 57 µM; many of its hits are not listed in these tables
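Coupled assay in which S. mansoni TGR passes NADPH reducing equivalents via glutathione to Prx2, which reduces H2O2. Compounds were preincubated 15 min at room temperature with 25 nM TGR/50 nM Prx2 mix. Kinetic NADPH fluorescence loss (ex 365/em 450 nm) was monitored.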
Starred values were filed as active, the others as inactive; ? = inconclusive; · = no result given; & = joins results of further samples; [ ] = remark or other dose. Potency means the concentration at half of the fitted maximal effect. A portion of the library. The share of hits here may be higher or lower than overall.

Values in the order – Anthrax LT inh	SmPrx2 inh
> O=C(OCC(=O)N1CCN(C(=O)c2ccco2)CC1)c1ccc(S(=O)(=O)N2CCCCC2)cc1
 : -2%	>57
> O=C(CSCCc1ccccn1)Nc1cccnc1
 : 4%	>57
> Cc1cc(Cc2c(C)c(C)c(Cc3cc(C)cc(C(C)(C)C)c3O)c(C)c2C)c(O)c(C(C)(C)C)c1
 : -6%[8 µM]	>57
> Cn1c(=O)c(-c2cccc(F)c2)nc2cncnc21
 : 11%	>57
> CC1(C)Oc2ccc(C(=O)NC3CCCC3)cc2N(CC(=O)N2CCOCC2)C1=O
 : ?	>57
> CCOC(=O)Cc1csc(NC(=O)C2C3C=CC(C3)C2C(=O)O)n1 (configuration not stated)
 : 9%	>57
> CCOc1ccc(-c2nc(CSCC(=O)NCc3ccco3)c(C)o2)cc1
 : 9%	>57
> CCOCCCNC(=O)CCCOc1ccccc1
 : -4%	>57
> Cc1ccc(C2CC(C(F)(F)F)n3nc(C(=O)NCCN4CCOCC4)cc3N2)cc1 (configuration not stated)
 : 2%	>57
> COc1cccc(-n2ccnc2SCC(=O)N2CCc3ccccc32)c1
 : -2%	>57
> O=C(Oc1ccc(-c2nnco2)cc1)N1CCCCC1
 : 14%	>57
> COc1ccccc1-c1nc(NCCN2CCOCC2)c2ccccc2n1
 : 0%	>57
> CC(C)(C)NC(=O)C1CCCN(S(=O)(=O)c2cccc3cccnc23)C1 (configuration not stated)
 : -6%	>57
> Cn1c(=O)c2c(ncn2C[C@@H](O)CO)n(C)c1=O
 : -3%[3.58 µM]	>57
> CCN(CC)c1ccc(NC(=O)CN2CCN(CC(=O)Nc3ccccc3F)CC2)cc1
 : -9%	·
> O=C(Nc1ccc2c(c1)OCO2)c1ccncc1
 : 12%	·
> O=C1NC(=O)C2(Cc3ccccc3N3CCCC32)C(=O)N1Cc1ccccc1 (configuration not stated)
 : ?	>57
> CCOC(=O)N1CCC(NC(=O)C2CCCN(Cc3nc(-c4cccc(Cl)c4)oc3C)C2)CC1 (configuration not stated)
 : ?	>57
> Cc1cc(NC(=O)Nc2cccc3ccccc23)no1
 : ?	·
> O=C1CC2CS(=O)(=O)CC2N1c1ccc(Cl)cc1Cl (configuration not stated)
 : 8%	>57
> COC(=O)C1C(=O)c2c(n[nH]c2C)CC1(C)C (configuration not stated)
 : -17%	>57
> Cn1c(=O)c2ncn(CC(=O)Nc3ccc4oc(-c5cccc6ccccc56)nc4c3)c2n(C)c1=O
 : -2%	>57
> CC1(C)CC(=O)C2=C(C1)OC1=C(C(=O)CC(C)(C)C1)C2c1ccc(O)cc1O
 : ?	·
> Cc1ccc(CN(c2ccc(C(=O)N3CCCC3)cc2)S(C)(=O)=O)cc1
 : 10%	>57
> COc1ccc(NC(=O)CSc2nnc(-c3ccoc3C)n2CCc2ccccc2)cc1
 : -16%	>57
> Cc1cc2c(c(=O)n1Cc1ccco1)C(c1cccnc1)C(C#N)=C(N)O2 (configuration not stated)
 : -24%	>57
> CCC(OC(=O)c1ccco1)C(=O)NCc1ccco1 (configuration not stated)
 : 2%	>57
> Cn1c(SCC(=O)c2cccs2)nnc1-c1ccco1
 : -7%	>57
> CSc1ccccc1NC(=O)CN(c1cccc(C)c1)S(C)(=O)=O
 : -7%	>57
> NC(=O)CSc1ccc(Br)cc1
 : -3%	>57
> CC(=O)N1CCN=C1SCc1ccc(Cl)cc1
 : -6%	>57
> CN(C)CCOCCP(=O)(c1ccccc1)c1ccccc1
 : -13%	·
> O=[N+]([O-])c1cc(C(F)(F)F)ccc1Cl
 : 1%	·
> Cn1c(=O)c2c(nc(NCCNC(=O)c3ccco3)n2Cc2ccccc2Cl)n(C)c1=O
 : -1%	>57
> O=C(NCc1cccnc1)NC1(c2ccccc2)CC1
 : 1%	>57
> COc1ccc2c(c1)c(=O)oc1c(C)c3occ(C)c3cc12
 : 5%	>57
> CC(C)(C)n1nnnc1C(c1cc2cc3c(cc2[nH]c1=O)OCCO3)N1CCSCC1 (configuration not stated)
 : -30%	>57
> CN1[C@@H]2CC[C@H]1CC(O[C@@H](c1ccccc1)c1ccc(Cl)cc1)C2 (some centres not stated)
 : 10µM*	>57&>57
> COC(=O)Nc1cc(C)nc2ccccc12
 : -19%	>57
> Cc1cc(N(CN2CCCC2=O)C(=O)c2ccccc2)no1
 : -1%	>57
> COc1ccccc1NC(=O)CCNC(=O)Cn1ccc2ccccc2c1=O
 : 2%	>57
> O=c1cc(CSc2ccccn2)c2ccccc2[nH]1
 : -11%	>57
> COc1ccc(CNC(=O)[C@H](C)[C@H]2C[C@]2(C)[C@H](NC(=O)OCc2ccccc2)c2ccccc2)cc1OC
 : 8%	>57
> CC(C)C1=C[C@@]23CC[C@@H]4[C@](C)(CCC[C@@]4(C)C(=O)O)[C@@H]2C[C@@H]1[C@@H](C(=O)O)[C@@H]3C(=O)O
 : -3%[8 µM]	>57
> COc1ccc2cc(CCNC(=O)C3CC3)c(=O)[nH]c2c1
 : 9%	>57
> Cn1c(SCc2cccc(C(F)(F)F)c2)nnc1-c1ccco1
 : -2%	>57
> NCCCP(=O)(O)CCc1ccccc1
 : -14%	>57
> CC1CCCN(CCC(=O)c2ccc(Br)cc2)C1 (configuration not stated)
 : ?	>57
> O=C(Nc1ccc(Cl)c(Cl)c1)N(Cc1cccnc1)Cc1ccco1
 : -25%	>57
> COc1ccc(NC(=O)C2CCCN(S(=O)(=O)c3cccc4cccnc34)C2)c(OC)c1 (configuration not stated)
 : ?	>57
> COc1ccc(C(c2nnnn2Cc2ccc(F)cc2)N2CCN(c3ccc(OC)cc3)CC2)cc1 (configuration not stated)
 : ?	>57
> O=C(c1ccncc1)N1C2C=CC(C2)C1(C(F)(F)F)C(F)(F)F (configuration not stated)
 : 0%	>57
> CCCCS(=O)(=O)Nc1ccc(C(=O)NCC2CCCO2)cc1 (configuration not stated)
 : -1%	>57
> COc1ccccc1C1C(C(N)=O)=C(C)Nc2nc(-c3ccc(Cl)cc3)nn21 (configuration not stated)
 : 12%	>57
> COc1ccc(C(=O)N2CCC3(CC2)CN(CC(C)C)C3)cc1
 : 12%	>57
> O=C1Nc2c(c(=O)[nH]c(=O)n2-c2ccccc2)C1(Nc1ncccn1)C(F)(F)F (configuration not stated)
 : -12%	>57
> CCOC(=O)N1CCC(NC(=O)CSc2cc(=O)n(C)c3ccc(Cl)cc23)CC1
 : ?	>57
> Cc1cc(S(=O)(=O)NCc2cccnc2)ccc1-n1cnnn1
 : -3%	>57
> Cc1cc(N2CCN(C(=O)c3ccco3)CC2)nc(-c2ccccc2)n1
 : 13%	>57
> C=CCOC(=O)C1C(=O)CC(C)(O)C(C(=O)OCC=C)C1c1ccc(OC)cc1 (configuration not stated)
 : -3%	>57

Retrieved one by one from above (4):
Values in the order – Anthrax LT inh	SmPrx2 inh
> CN1[C@@H]2CC[C@H]1CC(O[C@@H](c1ccccc1)c1ccc(Cl)cc1)C2 (some centres not stated)
 : 10µM*	>57&>57
> COc1ccc2cc(CCNC(=O)C3CC3)c(=O)[nH]c2c1
 : 9%	>57
> O=C(NCc1cccnc1)NC1(c2ccccc2)CC1
 : 1%	>57
> COc1ccc2c(c1)c(=O)oc1c(C)c3occ(C)c3cc12
 : 5%	>57

Next records:
Values in the order – Anthrax LT inh	SmPrx2 inh
> Cc1c(-c2ccco2)[n+](=O)c2c(n1[O-])CCCCC2
 : -8%	·
> O=C(Oc1ccccc1)N1CCC2(CC1)CN(C(c1ccccc1)c1ccccc1)C2
 : -11%	>57
> Cc1cc(N(CN2CCCC2=O)C(=O)c2ccc(F)cc2)no1
 : -6%	>57
> C1CCN(c2nc3nonc3nc2N2CCCCC2)CC1
 : -21%	>57
> CCOC(=O)NC(=O)COC(=O)Cc1cc(OC)c(OC)c(OC)c1
 : 5%	>57
> COc1ccc(-n2c(C)nc3cc(C(=O)N4CCC5(CC4)OCCO5)ccc32)cc1
 : -2%	>57
> CO[C@H]1COC(=O)C/C=C\[C@H](C)[C@@H](OC)COC(=O)[C@H](C)COC(=O)C/C=C\[C@@H]1C
 : -8%[8 µM]	·
> Cc1occc1C(=O)n1cnc2ccccc21
 : 9%	>57
> Cc1oc(-c2cccc(Cl)c2)nc1CN1CCCC(C(=O)NC(C)c2ccc3c(c2)OCCO3)C1 (configuration not stated)
 : ?	>57
> O=S1(=O)CCN2C(c3ccco3)=CSC2=N1
 : -3%	>57
> O=C(C1CCN(c2nnc(-n3cccc3)s2)CC1)N1CCN(Cc2ccc3c(c2)OCO3)CC1
 : -19%	>57
> C=Cc1c(C)c2cc3[nH]c(cc4nc(cc5nc(cc1[nH]2)C(C)=C5CCC(=O)O)C(CCC(=O)O)=C4C)c(C)c3C=C
 : -21%	>57
> COC(=O)Nc1c(-c2ccccc2)nc2ccc(C)cn12
 : 5%	>57
> O=C(C1CC1)N1CCc2cc(Br)cc(S(=O)(=O)NC3CCCCC3)c21
 : -8%	>57
> CCCCn1c(CCC(=O)O)ccc1-c1cccs1
 : 12%	>57
> CCCCN1C(=O)C2C(C(=O)Nc3cccc(OC)c3)C3C=CC2(O3)C1C(=O)NC1CCCCC1C (configuration not stated)
 : 6%	>57
> CCOCCCNCc1ccc(OC)c(OC)c1
 : -3%	>57
> O=C(CCNS(=O)(=O)c1ccc(Br)s1)N1CCN(c2ccccc2)CC1
 : -8%	>57
> OCc1ccccc1
 : -10%	·
> COc1ccc(NC(=O)CCCn2c(=O)[nH]c3ccccc3c2=O)cc1
 : 15%	>57
> CN(CCc1ccccn1)C(=O)c1nn2c(C(F)(F)F)cc(-c3ccco3)nc2c1Cl
 : ?	·
> NCCCCCc1nnc(SCC(=O)c2ccc(Cl)cc2)o1
 : ·	>57
> COc1cc(C(=O)Nc2ccc3c(c2)OCCO3)ccc1OC(C)C
 : -18%	>57
> O=C(NS(=O)(=O)c1ccccc1)c1ccccc1O
 : -8%	>57
> CCCCNC(=O)Nc1c(C(=O)OCC)[nH]c2ccccc12
 : ·	>57
> CSc1ncccc1C(=O)OCC(=O)N(CC(C)C)C1CCS(=O)(=O)C1 (configuration not stated)
 : -2%	>57
> CCc1c2c(nc3ccc(OC)cc13)COC2
 : -5%	>11
> CCc1cc2c(=O)c(-c3nc4ccccc4n3C)c(C)oc2c(CN2CCOCC2)c1O
 : 13%	·
> O=C(CCCN1C(=O)C2C3C=CC(C3)C2C1=O)N1CCN(c2ccccc2)CC1 (configuration not stated)
 : 5%	>57
> CCc1ccccc1NC(=O)c1cc(C2CC2)on1
 : -6%	>57

Profiles from above. Values in the order: Anthrax LT inh | SmPrx2 inh
`O=C(CCNS(=O)(=O)c1ccc(Br)s1)N1CCN(c2ccccc2)CC1` is listed with -8% | >57
`OCc1ccccc1` is listed with -10% | ·

Later entries
Values in the order – Anthrax LT inh	SmPrx2 inh
> COc1cc(-c2nc(-c3ccc(-c4ccccc4)nc3OC)no2)cc(OC)c1OC
 : 0%	>57
> c1ccc(-c2noc(-c3ccc4c(c3)OCO4)n2)nc1
 : 11%	>57
> CC(C)C(NC(=O)C1CCCCC1)C(=O)Nc1ccncc1 (configuration not stated)
 : -10%	>57
> CC(NC(=O)CSc1nc2ccccc2c(=O)n1CCCO)c1ccccc1 (configuration not stated)
 : -20%	>57
> COc1ccc(CC(=O)N(Cc2cc3cc(OC)ccc3[nH]c2=O)C(C)C)cc1
 : ·	>57
> COc1ccc(CNc2nc(-c3c(C)noc3C)nc3ccccc23)c(OC)c1
 : ?	>57
> O=C(Nc1ccccc1)c1cnc[nH]1
 : -5%	>57
> CCOc1ccc(N(CC(=O)NC2CCCCC2)S(=O)(=O)c2c(C)noc2C)cc1
 : -3%	>57
> CCCc1nnc(NC(=O)CNc2ccc(F)cc2)s1
 : 7%	>57
> COc1ccc(OC)c(-n2c(O)c(C=NCc3ccc4c(c3)OCO4)c(=O)[nH]c2=O)c1
 : -11%	>57
> O=C(Nc1ccc(S(=O)(=O)N2CCOCC2)cc1)c1ccc(Br)o1
 : -18%	>57
> Cc1cc(NC(=O)CCCC(=O)N(CC(=O)NCCc2ccccc2)Cc2ccc(F)cc2)no1
 : ?	>57
> C[C@]12CC[C@H]3c4ccc(O)cc4CC[C@@H]3[C@H]1CC[C@@H]2OP(=O)(O)O
 : -5%[8 µM]	>57
> CCCOc1ccccc1NC(=O)CC1Nc2ccccc2NC1=O (configuration not stated)
 : 5%	>57
> CN1CCCC2(CCN(C(=O)c3cnccn3)CC2)C1
 : 6%	>57
> CCC(=O)N1CCCc2cc(S(=O)(=O)N3CCCc4ccccc43)ccc21
 : ?	>57
> CC(C)[C@@H](CC(=O)N[C@@H]1CCCC[C@H]1C(=O)N[C@H](CC(=O)N[C@@H](CCC(=O)O)CC(=O)O)Cc1ccccc1)NC(=O)C[C@H](CO)NC(=O)[C@@H]1CNCC[C@H]1N
 : -21%	>57
> C=CCSC1=C(C#N)C(c2cccc(OC)c2)CC(=O)N1 (configuration not stated)
 : -3%	>57
> C=CCn1c(O)c(C(CC)=NCc2cc(OC)cc(OC)c2)c(=O)[nH]c1=O
 : ·	>57
> CCN(CC)CCCC(C)n1c(-c2ccccc2)nc2c(NCCO)nc(C)nc21 (configuration not stated)
 : -17%	·
> COc1ccc(OC)c(Nc2cc(C)nc3nc(C)nn23)c1
 : -2%	>57
> CCCNC(=O)NS(=O)(=O)c1ccc(Cl)cc1
 : -18%	>57&>57
> COc1cccc(-c2nnn(CC(=O)NC3CCCC3)n2)c1OC
 : ?	>57
